Bioassay records: PubChem, National Center for Advancing Translational Sciences (NCATS)
StopGo FLuc – Primary qHTS Assay for Foot and Mouth Disease Virus Antivirals against NCGC Sytravon and CBC Compound Libraries: Firefly Luciferase Signal | HEK cells with a luciferase reporter of 2A StopGo recoding | Potency, µM (highest dose often 57.5 µM), without a hit: at the highest dose signal change, negative = less light | 0.23% of 120,000 active | AID 1745856, 2022; active = well fitted falling curve with a large enough effect; inconclusive = small, poorly fitted or top-dose-only effect; inactive = no such curve, though single readings can be large or run the other way; also: nearly all actives have a fitted effect of over 60% in size; overnight with compound
2A Renilla – Primary qHTS Assay for Foot and Mouth Disease Virus Antivirals against NCGC Sytravon and CBC Compound Libraries: Renilla Luciferase Signal; HEK cells with a luciferase reporter of 2A StopGo recoding; Potency, µM (top dose mostly 57.5 µM), for inactives: top-dose signal change, negative = less light; 0.32% of 120,000 active; AID 1745857, 2022; active means well fitted falling curve with a large enough effect; inconclusive means small, poorly fitted or top-dose-only effect; inactive means no such curve, though single readings can be large or run the other way; also: nearly all actives have a fitted effect of over 55% in size; overnight with compound
An asterisk follows results filed as active; [ ] = dose if it differs, or a comment. % is scaled to controls: 0 for no effect and ±100 for the full control effect; potency is read from the fitted curve at half-maximal effect.

Start of the listing, in advance (2 entries):
`Fc1ccc(Nc2nc(SCc3cccc(F)c3)nc3ccccc23)cc1` gave StopGo FLuc -16% and 2A Renilla 17%.
For Cc1cc(NC(=O)c2ccccc2C(F)(F)F)ccc1N1CCN(C)CC1 the results were StopGo FLuc 4% and 2A Renilla 11%.

The list itself (from the top)
`Fc1ccc(Nc2nc(SCc3cccc(F)c3)nc3ccccc23)cc1` gave StopGo FLuc -16% and 2A Renilla 17%.
For Cc1cc(NC(=O)c2ccccc2C(F)(F)F)ccc1N1CCN(C)CC1 the results were StopGo FLuc 4% and 2A Renilla 11%.
C=Cc1c(C)c2cc3[nH]c(cc4nc(cc5nc(cc1[nH]2)C(C)=C5CCC(=O)O)C(CCC(=O)O)=C4C)c(C)c3C=C was read as StopGo FLuc -20% and 2A Renilla -13%.
For COc1ccc(-c2ocnc2C(=O)Nc2cccc(OC)c2)cc1 the results were StopGo FLuc 83%[activator] and 2A Renilla 1%.
Screening CC(C)c1nnc2ccc(N3CCC(C(=O)Nc4ccc5c(c4)OCO5)CC3)nn12 returned StopGo FLuc 0% and 2A Renilla 0%.
`CCOC(=O)c1ccc(NC(=O)Cn2c(=O)cc(C)c3c(C)nn(-c4cccc(F)c4)c32)cc1` gave StopGo FLuc -15% and 2A Renilla -9%.
Screening CCCN(CCC)C(=O)Cn1c(=O)n(-c2cccc(OC)c2)c(=O)c2c(C)c(C(=O)N(C)C)sc21 returned StopGo FLuc inconclusive and 2A Renilla -16%.
CSc1ccc(NC(=O)c2n[nH]c(=O)c3ccccc23)cc1 was read as StopGo FLuc 130%[activator] and 2A Renilla 3%.
CCOc1ccc(-c2nnc(SCC(=O)c3ccccc3)n2-c2ccccc2)cc1 was read as StopGo FLuc -4% and 2A Renilla -8%.
For Cc1ccccc1-c1noc(C(C)NC(=O)c2ccco2)n1 (stereo not given) the results were StopGo FLuc -10% and 2A Renilla 6%.
`CCCN1CCN(CCCNC(=O)c2cc3c(s2)-c2c(C)cccc2OC3)CC1` gave StopGo FLuc 4% and 2A Renilla -10%.
Cc1nc2cc(NC(=O)c3ccc(C(C)(C)C)cc3)ccc2o1 was read as StopGo FLuc 7.9µM* and 2A Renilla 4.5µM*.
Cc1cc(C)cc(NC(c2nnc(-c3cccc(F)c3)o2)c2ccc(F)cc2Cl)c1 (stereo not given) was read as StopGo FLuc -10% and 2A Renilla 68%[activator].
For O=C(Nc1ccccc1C(=O)OCc1cc(=O)n2ccsc2n1)c1ccccc1Cl the results were StopGo FLuc -15% and 2A Renilla -4%.
For COC(=O)c1ccc(N2CC3=C(C2=O)C(c2ccccc2)NC(=O)N3C)cc1 (stereo not given) the results were StopGo FLuc -1% and 2A Renilla -8%.
CCN(CC)S(=O)(=O)c1ccc(NC(=O)Cn2ncc3c([nH]c4ccccc43)c2=O)cc1 was read as StopGo FLuc -20% and 2A Renilla -10%.
`O=C(NCc1ccccc1F)c1nc(-c2ccc(Br)o2)no1` gave StopGo FLuc 0% and 2A Renilla 91%[activator].
O=c1c(NCc2cccs2)nccn1-c1ccc(F)cc1 was read as StopGo FLuc 80%[activator] and 2A Renilla 0%.
`O=C(Cc1ccccc1)Nc1sc2c(c1C(=O)Nc1ccc(Cl)cc1)CCCC2` gave StopGo FLuc -8% and 2A Renilla -3%.
For O=C(Nc1cccc2ncccc12)c1cccc(S(=O)(=O)NCC(F)(F)F)c1 the results were StopGo FLuc 4% and 2A Renilla 130%[activator].
For CN(C)C(CNC(=O)c1cc(=O)[nH]c2ccccc12)c1ccc(F)cc1 (stereo not given) the results were StopGo FLuc 3% and 2A Renilla -2%.
CCOc1ccc2nc(N3CCN(C(=O)c4ccc(S(=O)(=O)CC)cc4)CC3)sc2c1 was read as StopGo FLuc -6% and 2A Renilla -6%.
COc1ccccc1N1CCN(c2ccc(NC(=O)c3ccc(C)cc3)cc2C(=O)O)CC1 was read as StopGo FLuc 16% and 2A Renilla -1%.
O=C(CCC1CCCC1)NCc1ccncc1 was read as StopGo FLuc 23% and 2A Renilla 13%.
For CCOC(=O)CNC(=O)Nc1cc(C(=O)NCc2ccc(OC)cc2)ccc1N1CCCC1 the results were StopGo FLuc 26% and 2A Renilla -9%.
Screening CCCc1ccc(-c2ccc(C(=O)Oc3ccc(OCC)cc3)cc2)nc1 returned StopGo FLuc 26% and 2A Renilla -8%.
For COc1ccc(OC)c(/C=C2\Oc3cc(OS(=O)(=O)c4ccc(C)cc4)ccc3C2=O)c1 the results were StopGo FLuc 6% and 2A Renilla 4%.
COc1ccc(CNC(=O)CN2C(=O)COc3ccc(S(=O)(=O)Nc4ccccc4)cc32)cc1 was read as StopGo FLuc -3% and 2A Renilla 68%[activator].
Cc1ccccc1-c1cc(C(=O)O)c2cccc(C)c2n1 was read as StopGo FLuc 0% and 2A Renilla -10%.
For Cc1ccc(-c2nc(C)c(CCNC(=O)C(=O)Nc3ccc(C)c(Cl)c3)s2)cc1 the results were StopGo FLuc 18% and 2A Renilla -1%.
For CCCOc1c(Br)cc(/C=C/C(=O)c2ccc(O)c(OC)c2)cc1OC the results were StopGo FLuc -3% and 2A Renilla inconclusive.
CC1CCN(C(=O)Cn2cc(SCC(=O)Nc3ccccc3C(F)(F)F)c3ccccc32)CC1 was read as StopGo FLuc inconclusive and 2A Renilla -39%.
Screening Cc1cc(C)cc(NC(=O)CCn2cnc3ccccc3c2=O)c1 returned StopGo FLuc -10% and 2A Renilla -14%.
For Cn1nc(C(=O)OC2CCC(C(C)(C)C)CC2)c2ccccc2c1=O (stereo not given) the results were StopGo FLuc 18% and 2A Renilla -2%.
O=C(NCc1cccc(Br)c1)c1ccc(NC(=O)N2CCCCc3ccccc32)cc1 was read as StopGo FLuc -1% and 2A Renilla -11%.
`COc1ccc(-c2nc(C)c(CCNC(=O)c3ccccc3Br)s2)cc1OC` gave StopGo FLuc 0% and 2A Renilla -13%.
CC(C)/C(=N\NC(=O)c1ccc(C(C)(C)C)cc1)c1ccccc1 was read as StopGo FLuc 159%[activator] and 2A Renilla 15%.
`Cc1ccc(CN2CCC(CNC(=O)c3cnn(-c4ccc(C)cc4)c3C3CCN(C(=O)OC(C)(C)C)CC3)CC2)cc1` gave StopGo FLuc 9% and 2A Renilla 1%.
`Cc1c(CNCc2ccccc2)c(C(=O)O)c(C)n1Cc1ccc(F)cc1Cl` gave StopGo FLuc -2% and 2A Renilla -1%.
For Cn1c(=O)[nH]c(=O)c2c1nc(NCCCO)n2Cc1ccccc1 the results were StopGo FLuc 22% and 2A Renilla 15%.
Screening NC(=S)c1ccc(C(=O)NCc2ccccc2F)cc1 returned StopGo FLuc 2% and 2A Renilla 0%.
For COc1ccc(S(=O)(=O)N2CCn3cccc3C2c2ccccc2F)cc1C (stereo not given) the results were StopGo FLuc 0% and 2A Renilla 125%[activator].
For Cc1cc(=O)oc2c(C)c(OC(C)C(=O)NCc3ccc(S(N)(=O)=O)cc3)ccc12 (stereo not given) the results were StopGo FLuc 5% and 2A Renilla 3%.
CCN1CCCC(OC(=O)c2cccc(Br)c2)C1 (stereo not given) was read as StopGo FLuc -6% and 2A Renilla -10%.
Screening O=C(/C=C/Nc1ccc(F)c(Cl)c1)c1ccc(-c2ccccc2)cc1 returned StopGo FLuc 32%[activator] and 2A Renilla 7%.
Screening COc1ccc(N2CCN(C(=O)c3oc4ccccc4c3NC(=O)c3ccccc3OC)CC2)cc1 returned StopGo FLuc 20% and 2A Renilla 47%[activator].
Screening O=C(Nc1ccccc1Cl)c1cc(S(=O)(=O)N2CCC3(CC2)OCCO3)ccc1F returned StopGo FLuc -9% and 2A Renilla -2%.
`CC(C)(C)C(=O)OC1=CN(Cc2ccccc2)S(=O)(=O)c2ccccc21` gave StopGo FLuc -2% and 2A Renilla 8%.
For O=C(Nc1ccc2nc(SCC(=O)N3CCc4ccccc43)sc2c1)c1ccccc1 the results were StopGo FLuc 6% and 2A Renilla 2%.
N#C/C(=C(O)\C=C\c1ccccc1)c1nc2ccccc2[nH]1 was read as StopGo FLuc 0% and 2A Renilla 13%.
Screening CCN(CC)S(=O)(=O)c1ccc(Oc2ccc3ccccc3c2)nc1 returned StopGo FLuc -20% and 2A Renilla -17%.
For O=C(COC(=O)c1nn(-c2ccccc2)c(=O)c2ccccc12)Nc1ccccc1-c1ccccc1 the results were StopGo FLuc -6% and 2A Renilla -18%.
For Nc1c(C(=O)Nc2ccc(F)c(F)c2)sc2nc(-c3ccncc3)ccc12 the results were StopGo FLuc -1% and 2A Renilla -9%.
Screening CC(N(C)C(=O)CCc1ccco1)C(C)(C)C (stereo not given) returned StopGo FLuc 2% and 2A Renilla 11%.
`O=C(CSc1nncn2c1cc1occc12)Nc1ccc(F)c(Cl)c1` gave StopGo FLuc -13% and 2A Renilla 1%.
Screening CN(Cc1ccc(C(F)(F)F)cc1)C(=O)c1ccc(CNC(N)=O)cc1 returned StopGo FLuc 7% and 2A Renilla 2%.
Screening COC(=O)c1ccc(NC(=O)CSc2nc3c(c(=O)n(C)c(=O)n3C)n2Cc2ccccc2)cc1 returned StopGo FLuc -9% and 2A Renilla -2%.
O=C(Nc1nc(-c2ccccc2)ns1)c1ccc(Cl)cc1 was read as StopGo FLuc 4% and 2A Renilla -10%.
For CCCc1nnc(NC(=O)c2cc(=O)c3cc(Cl)c(C)cc3o2)s1 the results were StopGo FLuc 0% and 2A Renilla -9%.
For COC(=O)c1ccccc1NC(=O)NCc1nc(-c2ccccc2)oc1C the results were StopGo FLuc -13% and 2A Renilla 104%[activator].

Six compounds already listed, sorted by heavy-atom count, highest first:
For O=C(COC(=O)c1nn(-c2ccccc2)c(=O)c2ccccc12)Nc1ccccc1-c1ccccc1 the results were StopGo FLuc -6% and 2A Renilla -18%.
For Cc1ccc(-c2nc(C)c(CCNC(=O)C(=O)Nc3ccc(C)c(Cl)c3)s2)cc1 the results were StopGo FLuc 18% and 2A Renilla -1%.
For Nc1c(C(=O)Nc2ccc(F)c(F)c2)sc2nc(-c3ccncc3)ccc12 the results were StopGo FLuc -1% and 2A Renilla -9%.
Screening CN(Cc1ccc(C(F)(F)F)cc1)C(=O)c1ccc(CNC(N)=O)cc1 returned StopGo FLuc 7% and 2A Renilla 2%.
For Cn1nc(C(=O)OC2CCC(C(C)(C)C)CC2)c2ccccc2c1=O (stereo not given) the results were StopGo FLuc 18% and 2A Renilla -2%.
O=C(CCC1CCCC1)NCc1ccncc1 was read as StopGo FLuc 23% and 2A Renilla 13%.

Remaining list, next part
For N#Cc1ccc(OCCSCc2cccc3ccccc23)cc1 the results were StopGo FLuc 0% and 2A Renilla 18%.
O=C(NCc1ccc(Br)o1)c1nc(-c2ccccc2)no1 was read as StopGo FLuc 0% and 2A Renilla 53%[activator].
`CCC(=O)NC1(C(F)(F)F)N=C(c2ccccc2)N(CCc2ccccc2)C1=O` (stereo not given) gave StopGo FLuc 4% and 2A Renilla -10%.
Screening Cc1ccc(CNC(=O)c2sc3nc4n(c(=O)c3c2C)CCCCC4)cc1 returned StopGo FLuc 19% and 2A Renilla 13%.
`O=C(Nc1ccc(O)c(-c2nc3ccccc3o2)c1)c1cccc(Cl)c1` gave StopGo FLuc -14% and 2A Renilla -20%.
COc1cccc(CNCc2c(C(=O)O)c(C)n(Cc3ccc(F)cc3Cl)c2C)c1OC was read as StopGo FLuc -17% and 2A Renilla 2%.
CCOc1ccc(NC(=O)CC2C(=O)N(c3ccccc3)C(=O)N2C2CCCC2)cc1 (stereo not given) was read as StopGo FLuc -15% and 2A Renilla 7%.
For N#Cc1ccsc1NC(=O)CSc1nnc(-c2ccccc2F)n1C1CC1 the results were StopGo FLuc 38%[activator] and 2A Renilla 16%.
Cc1ccc(NC(=O)CCNS(=O)(=O)c2ccc(Br)s2)cc1 was read as StopGo FLuc 4% and 2A Renilla 0%.
`COC(=O)c1sccc1S(=O)(=O)N(CC(=O)NCc1ccccc1)c1ccc(C)cc1` gave StopGo FLuc 101%[activator] and 2A Renilla 249%[activator].
`CCOC(=O)c1ccccc1NC(=O)c1sc2nc3n(c(=O)c2c1C)CCCCC3` gave StopGo FLuc 4% and 2A Renilla -23%.
O=C(/C=C/c1ccncc1)c1ccc(N2CCOCC2)cc1 was read as StopGo FLuc 26% and 2A Renilla -19%.
For O=C(CCl)c1c[nH]c2ccccc12 the results were StopGo FLuc 14% and 2A Renilla -6%.
For O=C1CSc2ccc(S(=O)(=O)N3CCCC3)cc2N1 the results were StopGo FLuc 11% and 2A Renilla 8%.
`CCc1ccc(-c2c(C)sc(N)c2C#N)cc1` gave StopGo FLuc 0% and 2A Renilla 11%.
Screening CCn1c(CN2CCCCC2)nc2cc(NC(=O)c3cc(OC)c(OC)c(OC)c3)ccc21 returned StopGo FLuc 4% and 2A Renilla 9%.
For CN(C(=O)Nc1ccccc1F)C(c1ccc(Cl)cc1)c1nccn1C (stereo not given) the results were StopGo FLuc 12% and 2A Renilla 7%.
`COc1ccc(N2CCN(C(=O)CN3C(=O)CSc4c3c(C)nn4-c3ccccc3)CC2)cc1` gave StopGo FLuc -19% and 2A Renilla -11%.
COc1ccccc1NC(=O)c1ncoc1-c1ccc(C)o1 was read as StopGo FLuc 133%[activator] and 2A Renilla 5%.
Screening O=C(Cn1cc(SCc2ccc(Cl)cc2)c2ccccc21)N1CCOCC1 returned StopGo FLuc 103%[activator] and 2A Renilla 31%[activator].
Screening O=C(COc1ccc(-n2cnnn2)cc1)Nc1cccc(S(=O)(=O)N2CCOCC2)c1 returned StopGo FLuc -12% and 2A Renilla 9%.
`CCN(C(=O)CSc1nc2ccccc2nc1Cc1ccc(F)cc1)c1cccc(C)c1` gave StopGo FLuc -9% and 2A Renilla 3%.
